# Vaccinia Venus = qHTS for Stage-Specific Inhibitors of Vaccinia Orthopoxvirus: Venus Reporter Primary qHTS. Vaccinia virus Venus reporter expression, fluorescence. actives 0.46% (n = 330,000). Potency, µM (highest dose often 36.5 µM), without a hit: at the top dose activity change, negative = inhibition, usual class: inhibitors; active means well fitted inhibition curve with a large enough effect; inconclusive means small, poorly fitted or top-dose-only effect; inactive means no such curve, though single readings can be large or run the other way; tested in A549 cells; also: nearly all actives have a fitted effect of over 30% in size; inactives centre near -10
# VACV mCherry inh = qHTS for Stage-Specific Inhibitors of Vaccinia Orthopoxvirus: mCherry Reporter Primary qHTS. Vaccinia virus mCherry reporter infection, fluorescence; about a quarter of the inactives have no number. actives 0.63% (n = 310,000). Potency, µM (series often up to 36.5 µM), without a hit: at the top dose activity change, negative = inhibition, most hits filed as inhibitors. AID 720579, 2013; active = well fitted inhibition curve with a large enough effect; inconclusive = small, poorly fitted or top-dose-only effect; inactive = no such curve, though single readings can be large or run the other way; tested in A549 cells; also: nearly all actives have a fitted effect of over 35% in size; inactives centre near -10
# * marks the source's active call; other numbers are inactive results; i = inactive; ? = inconclusive; nt = not tested or not shown; [ ] = another dose, or the depositor's remark. % is scaled to controls: 0 for no effect and ±100 for the full control effect; potency is read from the fitted curve at half-maximal effect.
cpd	canonical_smiles	Vaccinia Venus	VACV mCherry inh
1	COc1ccc(NC(=O)C2(C)CCN2C(=O)c2ccccc2CCc2ccccc2)cc1OC (configuration not stated)	-11%	17%
2	CC(OC(=O)[C@@H]1CCCN1C(=O)c1cccs1)C(=O)Nc1cccc([N+](=O)[O-])c1 (some centres not stated)	-4%	i
3	Cc1ccc2c(c1)/C(=C/c1ccco1)C(=O)N2	-21%	-25%
4	O=C(CSCc1ccc(F)cc1)N1CCN(c2ccccc2)CC1	-5%	-9%
5	COC1=CC(=O)OC(c2ccco2)C1 (configuration not stated)	-4%	i
6	O=C(COC(=O)Cc1ccc(Cl)c(Cl)c1)Nc1ccc2[nH]c(=O)[nH]c2c1	-17%	-19%
7	C[C@@H]1CN([C@@H](C)CO)C(=O)c2ccccc2-c2ccccc2CO[C@@H]1CN(C)S(=O)(=O)c1ccc(C(F)(F)F)cc1	-8%	-9%
8	NC(=O)c1ccc(C2SCC(=O)N2CCc2ccccc2)cc1 (configuration not stated)	-9%	i
9	CC1(C(=O)Nc2ccc3[nH]ncc3c2)CCN1C(=O)C1(c2ccccc2)CC1 (configuration not stated)	-3%	-7%
10	Cc1cc(C)cc(-n2nnc(C(=O)NCc3ccc(Cl)cc3)c2N)c1	-16%	-16%
11	COC(=O)C1=C(C(=O)OC)[C@@H]2N(C)c3ccc(OC)cc3[C@@]23C[C@@H](C(=O)OC)N(C(=O)CC(C)C)C3=N1	-9%	-2%
12	O=C(c1ccco1)N1CCN(c2ncnc3scc(-c4ccc(Cl)cc4)c23)CC1	-19%	-14%
13	CCN(CC)C(=O)c1cccc(-c2csc(C(NC(C)=O)c3cccc(OC)c3)n2)c1 (configuration not stated)	-11%	i
14	Cc1nnc(SCCn2c(N3CC(C)CC(C)C3)nc3c2c(=O)n(C)c(=O)n3C)s1 (configuration not stated)	-3%	-9%
15	O=C(NN1C(=O)NC2(CCCCC2)C1=O)c1ccc(-c2ccc(Cl)cc2)o1	?	-22%
16	COc1cc(NC(=O)c2ncn[nH]2)cc(OC)c1OC	-2%	-12%
17	Cc1c(Cl)cccc1NC(=S)NC1CCN(Cc2ccccc2)CC1	-29%	?
18	COc1cc(NS(=O)(=O)c2ccc(NS(=O)(=O)c3ccccc3)cc2)nc(OC)n1	-4%	nt
19	COc1cc2c(NC3CCN(C)CC3)nc(N3CCCN(C)CC3)nc2cc1OCCCN1CCCC1	?	?
20	Cc1ccc(NC(CC(=O)c2ccccc2)C(=O)O)cc1Cl (configuration not stated)	-12%	?
21	COc1ccc2[nH]c3c(c2c1)CCN1C(=O)C(CC(=O)NC(C)(C)C)C[C@H](C(=O)N2CCCCC2)[C@@]31C (some centres not stated)	-5%	i
22	COC(=O)c1nn(-c2nc(-c3cccc(OC)c3)cc(C(F)(F)F)n2)cc1[N+](=O)[O-]	-10%	i
23	Cc1ccccc1C(=O)OCc1nnc(-c2ccc(Cl)cc2)o1	5%	-2%
24	CC1(C)Cc2ccccc2C(/C(=N/O)C(N)=O)=N1	-11%	-1%
25	CCc1ccc2[nH]c(=O)c(C(c3nnnn3CCOC)N3CCN(c4ccc(F)cc4)CC3)cc2c1 (configuration not stated)	-23%	?

# Exported screen by screen: part of the list above
1. COc1ccc(NC(=O)C2(C)CCN2C(=O)c2ccccc2CCc2ccccc2)cc1OC (configuration not stated)
14. Cc1nnc(SCCn2c(N3CC(C)CC(C)C3)nc3c2c(=O)n(C)c(=O)n3C)s1 (configuration not stated)
Screen / compound no.	1	14
Vaccinia Venus	-11%	-3%
VACV mCherry inh	17%	-9%

# Pulled by compound from the list above (3):
cpd	canonical_smiles	Vaccinia Venus	VACV mCherry inh
16	COc1cc(NC(=O)c2ncn[nH]2)cc(OC)c1OC	-2%	-12%
24	CC1(C)Cc2ccccc2C(/C(=N/O)C(N)=O)=N1	-11%	-1%
20	Cc1ccc(NC(CC(=O)c2ccccc2)C(=O)O)cc1Cl (configuration not stated)	-12%	?

# Single entries from the list.
# VACV mCherry inh with Cc1ccccc1C(=O)OCc1nnc(-c2ccc(Cl)cc2)o1 reads -2%
# Vaccinia Venus with Cc1ccc(NC(CC(=O)c2ccccc2)C(=O)O)cc1Cl (configuration not stated) reads -12%

# (further entries)
cpd	canonical_smiles	Vaccinia Venus	VACV mCherry inh
26	O=C(Nc1ccc(Br)cc1)/C(=C/c1cccc([N+](=O)[O-])c1)NC(=O)C1CCCCC1	0%	-13%
27	Cc1ccc(NC(=O)CSCC(=O)NNC(=O)c2nn(C)c(=O)c3ccccc23)cc1	-2%	-9%
28	Cc1ccccc1-n1nnnc1SCC(=O)Nc1ccc(S(=O)(=O)N2CCCC2)cc1	-18%	?
29	COCCCNC(=O)c1ccc(-n2c(-c3ccccc3)cc3c2CCCC3)cc1	-9%	-4%
30	Cc1ccc(NC(=O)c2ccccc2NS(=O)(=O)c2ccc(F)cc2)cc1S(=O)(=O)N1CCCCC1	?	?
31	Cn1cccc1C(=O)NC(=O)COC(=O)c1ccccc1Sc1ccccc1C#N	-19%	i
32	O=C1C(SC(F)(F)C(F)F)=C(C(F)(F)F)OC2C3C=CC(C3)C12 (configuration not stated)	-12%	i
33	Cc1ccccc1C(=O)Nc1cccc(NC(=O)c2cccnc2)c1	4%	i
34	CCCn1nc2cc(C(=O)NCc3ccc4c(c3)OCO4)ccc2c1OCC	-21%	i
35	COCCCn1c(=O)c2ccccc2n(CC(=O)Nc2ccc3c(c2)OCCO3)c1=O	-9%	i
36	CC(C)Oc1ccc(CNC(=O)Cn2c(-c3cccs3)cc3ccccc32)cc1	-6%	-2%
37	O=C(OC1CCN(CCCl)CC1)C(c1ccccc1)c1ccccc1	?	-21%
38	CCOC(=O)[C@]12CCCC=C1N(Cc1ccc(Cl)cc1Cl)C(=O)[C@H](CC(=O)NCC1CCCCC1)C2	-17%	-12%
39	CCCCOC(=O)c1ccc(NC(=O)c2c(Cl)ccc(Cl)c2OC)cc1	-12%	-11%
40	Cc1ccc(C(c2nnnn2Cc2ccccc2)N2CCN(Cc3ccncc3)CC2)cc1 (configuration not stated)	-13%	-8%
41	O=C1C2CC=C(Cl)CC2C(=O)N1CCCCCCN1C(=O)C2CC=C(Cl)CC2C1=O (configuration not stated)	-7%	-27%
42	CCC1CCCCN1CCNS(=O)(=O)c1ccc2c(c1)CCN2C(C)=O (configuration not stated)	-6%	-11%
43	O=C(NCCN1CCOCC1)c1ccc(Cl)cc1[N+](=O)[O-]	1%	-11%
44	NS(=O)(=O)c1cnccc1Oc1cccc(Cl)c1	2%	-6%
45	O=C(c1ccccc1)c1coc2c1C(=O)c1ccccc1C2=O	-6%	-10%
46	COc1ccc(S(N)(=O)=O)cc1C(=O)NCC(C)(C)N1CCOCC1	9%	-5%
47	CCc1ccccc1NC(=O)CN(C)C(=O)CSc1nnc(Nc2ccc(C)cc2)s1	-11%	i
48	O=C(COC(=O)c1cccnc1Cl)Nc1ccc(S(=O)(=O)N2CCOCC2)cc1	-5%	-3%
49	O=C(O)c1ccc(S(=O)(=O)N2CCOCC2)o1	-10%	-2%
50	Cc1nnc(N2C(=O)c3ccc(Br)cc3C2=O)s1	-15%	-20%
51	COC(=O)c1ccccc1OCCOCCOc1cccc2ccc(C)nc12	-1%	-10%
52	Cc1ccc(SCc2cc(=O)n(C)[nH]2)cc1	-17%	-5%
53	CN(CC(=O)Nc1ccccc1Br)C(=O)CCSc1ccc(F)cc1	-16%	?
54	CCN(CC)CCCN1C(=O)C(O)=C(C(=O)c2ccco2)C1c1ccc(C)o1 (configuration not stated)	-13%	i
55	O=C1CCCC(O)=C1C=NCc1ccccc1	-11%	-15%
56	O=c1oc2ccccc2n1CCCOc1ccccc1	7%	-6%
57	CCCCSc1ccc2nc(-c3ccc(C#N)cc3)cn2c1	-23%	nt
58	CNC(=O)C1=C(C)Nc2nc3ccccc3n2C1c1cccc(OC)c1 (configuration not stated)	-4%	i
59	CC(C)Oc1ccc(F)cc1-c1cc(C(=O)NCc2ccc(C(F)(F)F)cc2)[nH]n1	-10%	-5%
60	Cc1c(C(=O)N2CCOCC2)oc2ccc(S(=O)(=O)N3CCCC3)cc12	-15%	-18%
61	Nc1c(N(Cc2ccco2)C(=O)COc2ccc(Cl)cc2)c(=O)[nH]c(=O)n1Cc1ccccc1	-1%	0%
62	CC1(C)CC(=O)C=C(c2ccc(-c3ccc(S(C)(=O)=O)cc3)cc2)C1=O	-10%	i
63	Cc1ccc2c(c1)-c1c(c(C(=O)N3CCN(c4cc(Cl)ccc4C)CC3)nn1C)CS2	253%[activator]	2%
64	Cc1cc(C)nc(SCC(=O)NC(=O)c2ccccc2O)n1	-9%	-13%
65	O=C1CSC(c2cccc(F)c2)N1c1ccc(O)cc1 (configuration not stated)	-24%	-1%
66	CC(=O)Nc1ccc(NC(=O)CCc2nc3ccccc3c(=O)[nH]2)cc1	-10%	i
67	CCCCn1c(SCC(=O)c2ccc(O)cc2O)nc2cc(S(N)(=O)=O)ccc21	0%	-10%
68	S=C(c1ccc(-c2cccc(Cl)c2)o1)N1CCOCC1	-8%	-22%
69	O=C(CN(C(=O)CNC(=O)c1ccco1)c1ccc(F)cc1)NC1CCCC1	-2%	-6%
70	COc1cc(CNC(=O)c2ccc(Cn3nc(C)c(Cl)c3C)o2)cc(OC)c1	-22%	-6%
71	COc1cc(C)c(S(=O)(=O)NCc2cccs2)cc1C	14%	-17%
72	COCOCCn1cc(CN2CCS(=O)(=O)N(Cc3ccc(-c4ccc(C)cc4)cc3)C(CC(C)C)C2=O)nn1 (configuration not stated)	-17%	-1%
73	COc1ccccc1N1CCN(S(=O)(=O)Cc2ccccc2Cl)CC1	-8%	i
74	CN(CCOc1ccccc1)C(=O)C1CCN(C(=O)c2ccc(Cl)cc2)CC1	-16%	-6%
75	O=C(Nc1ccc(N=Nc2ccccc2)cc1)c1cccc(Cl)c1	-19%	-23%

# Additional records follow:
cpd	canonical_smiles	Vaccinia Venus	VACV mCherry inh
76	Cc1cc(C)n(-c2ccc(C(=O)Nc3ccc(N4CCOCC4)cc3)cc2)n1	?	nt
77	Cc1cc2nccc(-c3ccccn3)n2n1	0%	i
78	CCOc1ccccc1N1CC(c2nc3ccccc3n2CCCOc2ccccc2OC)CC1=O (configuration not stated)	1%	-6%
79	O=C(CSc1nnnn1-c1cccc2c1CCCC2)N1CCCC1	-13%	-11%
80	O=C(CN1CCN(Cc2ccc3c(c2)OCO3)CC1)Nc1ccc2[nH]c(=O)[nH]c2c1	-14%	-16%
81	COc1ccc(C(=O)NC2CCCc3c2cnn3-c2cccc(C)c2C)c(OC)n1 (configuration not stated)	-14%	?
82	Cc1ccc(C)c(NC(=O)CSc2nc(-c3ccccc3)cc(=O)[nH]2)c1	-13%	i
83	Cc1ccc(C(=O)NC(NC(=O)c2ccc(C)cc2)C(Cl)Cl)cc1	-19%	-18%
84	COc1ccc(/C=N/NC(=O)C2C(C=C(Cl)Cl)C2(C)C)c(OC)c1 (configuration not stated)	-6%	-15%
85	CC(=O)Nc1ccc(CN2CCc3c([nH]c4ccccc34)C2c2ccccn2)cc1 (configuration not stated)	-25%	?
86	CCn1cc(S(=O)(=O)CC(=O)Nc2cccc(C)c2)c2ccccc21	-14%	i
87	COc1ccc(-c2ccc(CNCCCN3CCOCC3)o2)cc1Cl	0%	0%
88	CCC(C)(C)NC(=O)c1ccc(Br)o1	-8%	i
89	COc1ccc(CCN2CC(C(=O)NCc3cnn(C(C)C)c3)CCC2=O)cc1 (configuration not stated)	-10%	i
90	CC(NC(=O)CCNC(=O)c1ccc(Br)cc1)c1ccc(S(N)(=O)=O)cc1 (configuration not stated)	-14%	0%
91	O=C(CCNS(=O)(=O)c1ccccc1)OCc1ccc([N+](=O)[O-])cc1	4%	i
92	CCSC1=NCCN1S(=O)(=O)c1ccc(F)cc1	-11%	-30%
93	COC(=O)c1ccccc1S(=O)(=O)N1CCC(C(=O)OCC(=O)c2ccccc2OC)CC1	-18%	-12%
94	Nc1nc2sc3c(c2cc1C(=O)N1CCOCC1)CCCC3	-11%	nt
95	O=C(CN1CCC(c2nc3ccccc3s2)CC1)N1CCCCC1	-23%	-7%
96	COc1ccc(-c2csc(Nc3cc(C)ccn3)n2)cc1OC	-26%	?
97	CC1(C)C[C@H]2C3=CCC4[C@@]5(C)CC[C@H](O)[C@](C)(CO)C5CC[C@@]4(C)[C@]3(C)C[C@@H](O)[C@@]2(CO)[C@@H](O)[C@@H]1O (some centres not stated)	-1%	6%
98	COC(=O)c1c(-n2c(C)cc(C=O)c2C)sc2c1CCCC2	-29%	-12%
99	Cn1c(=O)c2c(ncn2CC(O)CNc2cccc(Cl)c2)n(C)c1=O (configuration not stated)	-19%	-24%
100	COc1cc(S(=O)(=O)N2CCOCC2)ccc1NC(=O)COC(=O)/C=C/c1cc(OC)c(OC)c(OC)c1	-9%	-2%

# Down the list, as entered above:
# Nos. 93–97 in VACV mCherry inh, in turn: -12%, nt, -7%, ?, 6%

# Next section:
cpd	canonical_smiles	Vaccinia Venus	VACV mCherry inh
101	CCn1ccnc1CN(C)Cc1cn(-c2ccc(C)cc2)nc1-c1ccc(F)cc1	?	?
102	O=C(c1cccc(C(F)(F)F)c1)C1CCCN(Cc2ccccc2O)C1 (configuration not stated)	1%	-5%
103	COc1ccc(-c2cc(C(=O)N3CCOCC3)c3ccccc3n2)cc1OC	-11%	i
104	O=C(NNC(=O)c1ccc(Cl)c(Cl)c1)c1ccncc1	-17%[7.34 µM]	-15%[7.34 µM]
105	COc1ccc(-c2cc(C(F)(F)F)nc(S(=O)(=O)CCCC(=O)Nc3ccccc3C(F)(F)F)n2)cc1OC	-16%	-18%
106	CC1(C)Cc2cccc(OCC(=O)NCCc3ccccc3)c2O1	-19%	-15%

# Hits appear at their usual frequency; overall some 0.87% were active at least once.
